VACV E9 pol inh = inhibitors of vaccinia virus processive DNA synthesis (E9 polymerase). in vitro processive DNA synthesis, absorbance read-out; hits give low values; some inactives read as strong as hits. normalized absorbance, % (no concentration beside the values). 46,000 tested, 0.94% active. AID 493162;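 active means replicate mean up to 90% and picked by the depositor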;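 further: 100% = median of the test wells of a plate; 100 nL library stock went into each well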
Numbers without * were called inactive. Not all compounds are listed (hit frequency here may not be typical).

SMILES | VACV E9 pol inh
Cc1ccc(OCCCn2cnc3ccccc32)cc1 | 100
CCC(C(=O)Nc1ccccc1F)n1c(SCc2ccc(F)cc2)nc2ccncc21 (stereo unspecified) | 102
CC(C)N(Cc1ccccc1)C(=O)COc1ccccc1 | 97
COC(=O)c1ccc(NC(=O)COc2ccccc2)cc1 | 106
O=C(Nc1cccc(Cl)c1)OC1CCCCc2cccnc21 (stereo unspecified) | 101
C[C@@]1(C(=O)O)CC[C@]2(C)CC[C@]3(C)C4=CC=C5C=C(O)C(=O)C=C5[C@]4(C)CC[C@@]3(C)[C@@H]2C1 | 77*
Cc1cc(C(F)(F)F)c2c(n1)sc1c(=O)[nH]c(C)nc12 | 94
Cc1ccc(CN2C(=O)/C(=C/C(=O)NCCc3ccccc3)Sc3ccccc32)cc1 | 97
Oc1ccc(Br)cc1C=NCC1CCCO1 (stereo unspecified) | 75*
Cc1nn(-c2ccccc2)c2oc(=O)c(NC(=O)c3ccc(F)cc3)cc12 | 85
O=C(CSc1cnc2ccccc2n1)NC1CCCC1 | 102
Cc1sc(/N=C/c2ccccc2O)c(C#N)c1C | 100
CCN1C(=C(C#N)C#N)C=Cc2ccccc21 | 100
ON=C(Cc1ccccc1)Cc1ccccc1 | 104
Cc1cc(C(=O)N(C2CCCCC2)C2CCCCC2)no1 | 97
O=C(CCS(=O)(=O)c1ccc(Br)s1)NC1CCCC1 | 101
O=C(Nc1nc(-c2ccccc2)cs1)c1cccc(S(=O)(=O)N2CCCC2)c1 | 111
Cc1c(O)ccc(-c2[nH]ncc2-c2ccccc2)c1O | 100
COc1ccc(/C=C2\CCCC3=C2NC(=S)NC3c2ccc(OC)cc2)cc1 (stereo unspecified) | 100
CCOc1ccc(/C(O)=C2\C(=O)C(=O)N(CCN(CC)CC)C2c2ccc(Cl)cc2)cc1C (stereo unspecified) | 99
O=C(O)c1ccccc1C(=O)Nc1ccccn1 | 101
O=C(NCc1ccccc1)c1cc2c(s1)CS(=O)(=O)C2 | 99
O=C(O)CCCC(=O)c1ccccc1 | 100
Cc1c(C)c(C)c(CSC2=NCN(C)CN2)c(C)c1C | 87
CC(=O)Nc1cc(C(F)(F)F)ccc1NC(=O)C(F)(F)F | 101
CCCCC/C=C\C[C@@H](O)/C=C/C=C\C/C=C\CCCC(=O)O | 101
O=c1c(Cl)c(N2CCCC2)cnn1-c1ccccc1 | 99
O=C(CCOc1ccccc1F)N1CCN(c2ccccc2O)CC1 | 101
CC(C)(C)c1csc(NC(=O)c2ccncc2)n1 | 101
NC(=O)CCNC(=O)C(c1ccccc1)c1ccccc1 | 99
COc1ccc(CNC(=O)Cn2c(SC)nc3ccccc32)cc1 | 108
CCc1ccc(C(=O)Cn2c(N3CCOCC3)nc3ccccc32)cc1 | 101
O=C(O)c1cccc(Oc2ccccc2)c1 | 93
CCOCC(=O)NC12CC3CC(CC(C3)C1)C2 | 101
C=CCc1nc2ccccc2c(=O)n1CC=C | 100
CSCCC(C(=O)O)N1C(=O)/C(=C/c2cccnc2)SC1=S (stereo unspecified) | 100
O=S(=O)(c1ccc2ccccc2c1)N1CCN(c2ccc(F)cc2)CC1 | 99
COc1ccccc1NC(=O)C(C#N)Cc1ccc(C)cc1 (stereo unspecified) | 96
CCCOc1ccccc1NC(=O)/C=C/C(N)=O | 101
CN(C(=O)COC(=O)c1cc(F)c(F)cc1Cl)c1ccccc1 | 106
N#C/C(C(N)=O)=C1/SC=C(c2ccccc2)N1Cc1ccccc1 | 105
Cc1cc(NC(=O)/C(=C/c2cccs2)c2ccsc2)no1 | 102
Cc1ccc(C(=O)c2ccccc2C(=O)O)s1 | 117
Cc1ccc(CCSc2ccc(Cl)c(Cl)c2)cn1 | 93
Cn1c(=O)cc(OCC(=O)NCCCN2CCCC2)c2ccccc21 | 90
C=CCn1c(CCCNC(=O)c2ccccc2)nc2ccccc21 | 99
O=C(O)c1ccc2nc3ccsc3c(=O)n2c1 | 96
COCc1cc(=O)[nH]c2cc(NC(=O)C(F)(F)F)c(C)cc12 | 95
Cc1cc(=O)[nH]c2c1c(C)nn2C1CCCC1 | 99
CCCCn1c(-c2ccccc2)nc(=S)c2c1CCCC2 | 100
Carrying on.
SMILES | VACV E9 pol inh
Cc1ccc(OC(C)C(=O)O)cc1 (stereo unspecified) | 99
CC1CC1C(=O)OCC(=O)NCc1ccc(Cl)cc1Cl (stereo unspecified) | 94
NC(=O)c1c(-c2ccc(Cl)cc2)csc1NC(=O)CCCc1ccccc1 | 100
NC1=NC(=O)CC(C(=O)NCc2ccccc2)S1 (stereo unspecified) | 107
O=c1c2ccccc2c(C=Nc2cccc(C(F)(F)F)c2)c(O)n1-c1ccccc1 | 100
COc1ccc(/C=C2/C(=O)C(C(C)C)=CCC2C)cc1 (stereo unspecified) | 100
CCOc1ccc(N(CC)C(=S)Nc2ccc3nc(N4CCN(CC)CC4)cc(C)c3c2)cc1 | 95
O=C(COC(=O)c1cccc(NC(=O)C(F)(F)F)c1)c1ccccc1 | 99
CCC1c2ccc(C)n2CCN1C(=O)NC12CC3CC(CC(C3)C1)C2 (stereo unspecified) | 92
COc1cc(CN2CCC(C(=O)N3CCN(c4ccccc4F)CC3)CC2)cc(OC)c1O | 100

A second format for part of the listing above:
O=c1c2ccccc2c(C=Nc2cccc(C(F)(F)F)c2)c(O)n1-c1ccccc1
  VACV E9 pol inh: 100
COc1ccc(/C=C2/C(=O)C(C(C)C)=CCC2C)cc1 (stereo unspecified)
  VACV E9 pol inh: 100
CCOc1ccc(N(CC)C(=S)Nc2ccc3nc(N4CCN(CC)CC4)cc(C)c3c2)cc1
  VACV E9 pol inh: 95
O=C(COC(=O)c1cccc(NC(=O)C(F)(F)F)c1)c1ccccc1
  VACV E9 pol inh: 99

(list continues)
SMILES | VACV E9 pol inh
Cc1ccc(Oc2cnc3ccccc3n2)cc1 | 113
Cc1cc(Nc2ccccc2)n(C(=O)c2ccccc2)n1 | 94
Cc1cccc(C)c1NC(=O)C1(N(C)C(=O)/C=C/c2ccc3c(c2)OCO3)CCCCC1 | 89
COC(=O)C12CCCC(C(N)=O)(CCC1)C2 | 98
N#CC(=C1SCCCS1)S(=O)(=O)c1cccs1 | 96
N#CC1=C(SCC(=O)Nc2ccccc2)NC(=O)CC1c1ccccc1 (stereo unspecified) | 99
COc1ccccc1NC(=O)c1csc2c1CCCC2 | 100
O=C(Nc1ccc(F)cc1)c1cc2c(s1)-c1ccccc1SC2 | 100
c1ccc(CN2CCC(c3cccs3)=N2)cc1 | 100
CC[N+]1(CC(O)COc2ccc(Br)cc2Br)CCOCC1 (stereo unspecified) | 95
CCSc1nnc(NC(=O)C(C)SC2=NCCS2)s1 (stereo unspecified) | 100
CC(C)C(=O)Nc1ccc(S(=O)(=O)N2CCCCC2c2cccnc2)cc1 (stereo unspecified) | 99
CS(=O)(=O)c1scc(-c2cccs2)c1C#N | 100
COc1ccccc1OCc1nc2ccccc2s1 | 99
S=c1nc[nH]c2c1nnn2Cc1ccccc1Cl | 93
O=C(NCC1OCCc2ccccc21)c1ccc(NC(=O)c2ccco2)cc1 (stereo unspecified) | 100
CCOc1ccc2nc(NC(=O)C(CC)CC)sc2c1 | 98
O=C(NCc1cccs1)C1CCC(CNS(=O)(=O)c2ccccc2)CC1 (stereo unspecified) | 113
O=C(Cc1ccccc1)OCC(=O)C12CC3CC(CC(C3)C1)C2 | 104
COc1cccc(C(Nc2ccccn2)c2c(C)[nH]c3ccccc23)c1 (stereo unspecified) | 100

Shown as labelled records: part of the list above
CS(=O)(=O)c1scc(-c2cccs2)c1C#N
  VACV E9 pol inh: 100

COc1ccccc1OCc1nc2ccccc2s1
  VACV E9 pol inh: 99

S=c1nc[nH]c2c1nnn2Cc1ccccc1Cl
  VACV E9 pol inh: 93

O=C(NCC1OCCc2ccccc21)c1ccc(NC(=O)c2ccco2)cc1 (stereo unspecified)
  VACV E9 pol inh: 100

Additional structures follow.
SMILES | VACV E9 pol inh
CCOC(=O)C1CCCc2c1[nH]c1c(C(=O)O)cccc21 (stereo unspecified) | 97
O=C1COc2ccccc2N1Cc1ccccc1Cl | 99
O=C(Nc1ccc2c(c1)OCO2)c1cc(Cl)sc1Cl | 95
O=C(Nc1nc(-c2ccc(Cl)s2)cs1)C1=COCCO1 | 99
CCN(CC)S(=O)(=O)c1cccc(C(=O)Nc2ccc(I)cc2)c1 | 99
CC1(C(=O)O)NC(c2cc(Br)ccc2O)C2C(=O)N(c3ccccc3)C(=O)C21 (stereo unspecified) | 100
O=C(N=c1nc2ccccn2s1)c1ccccc1 | 106
COc1ccc(S(=O)(=O)NCc2cccnc2)c2ccccc12 | 99
c1ccc(-c2nnc(CN3CCCc4ccccc43)o2)cc1 | 99
CN(C)CCCn1c(=N)n(CC(O)C(C)(C)C)c2ccccc21 (stereo unspecified) | 100
COc1cccc(OC)c1OCC(O)CN1CCN(C)CC1 (stereo unspecified) | 101
COc1ccc(C(O)c2nccn2Cc2ccccc2)cc1OC (stereo unspecified) | 103
CC(CC(=O)Nc1cccc(Cl)c1)N1CCCC1 (stereo unspecified) | 118
COC(=O)c1ccc(Oc2ncnc3sc(C)c(C)c23)cc1 | 100
Cc1ccccc1CN1CCN(C(=O)c2ccco2)CC1 | 103
COc1ccc(C[C@H](N)C(=O)N[C@@H]2[C@@H](CO)OC(n3cnc4c(N(C)C)ncnc43)[C@@H]2O)cc1 (stereo partly specified) | 102
O=C(O)CCNC(=O)c1ccco1 | 100
Cc1cccc(NC(=O)C2c3ccccc3Oc3ccccc32)c1 | 98
O=C(O)COc1ccc2c(=O)c(-c3cscn3)coc2c1 | 104
Cc1nc2ccccc2n1CCOc1ccc(Br)cc1 | 100
CCN(CC)c1c(-c2ccccc2)c2cc(Br)ccc2[nH]c1=O | 95
COc1ccc(-c2coc3c(C)c4oc(=O)c5cc(OC)ccc5c4cc23)cc1 | 101
CC(=O)OC1CCCCC1C1=CCCCC1 (stereo unspecified) | 104
CC1CCCCN1c1nc(-c2ccccc2O)nc2ccccc12 (stereo unspecified) | 100
Nc1cc(=O)[nH]c(SCc2ccc(C(=O)c3ccccc3)cc2)n1 | 99
CCn1cc(CN(Cc2ccccc2)C(=S)Nc2cc(C)ccc2C)c2ccccc21 | 96
CCCc1cc(NCCN(C)C)n2c(nc3ccccc32)c1C#N | 94
Nc1nn2cc(-c3ccc(Cl)s3)nc2c2ccccc12 | 100
CC(NS(C)(=O)=O)C(c1cccs1)N1CCN(c2ccccc2)CC1 (stereo unspecified) | 101
O=C(CCCn1c(=O)c2ccccc2n(CC(=O)c2ccc(F)cc2)c1=O)NC1CCCC1 | 72
CCCN=C1CC(C)(C)CC(=O)/C1=C(\O)Cc1ccc(OCC)c(OCC)c1 | 99
CC(C)c1ccc(NCCNC2CCCCCC2)cc1 | 89
CC(C)(C)c1ccc(C(=O)NC2=NCCS2)cc1 | 102
CCOC(=O)CSc1nc(N)c(C#N)c(CC(C)C)c1C#N | 101
O=C(Nc1nc(-c2ccc(Cl)s2)cs1)c1ccco1 | 102
CCCc1nc2ccccc2n1CC(=O)N(c1ccccc1)C(C)C | 100
O=C(NC(=S)Nc1ccc(O)c(-c2nc3ccccc3o2)c1)c1ccccc1 | 100
N#Cc1c(N=CN2CCCCC2)nc2c(c1-c1ccccc1)CCCC2 | 107
Cc1cccc(C(=O)OCC(=O)N2c3ccccc3CC2C)c1O (stereo unspecified) | 109
O=C(CSc1cn(Cc2ccccc2)c2ccccc12)N1CCCC1 | 100
C=CCN=C1SCC(=O)N1S(=O)(=O)c1ccccc1 | 96
COC(=O)/C(C#N)=C1\NC(C)=NC(SC)=C1C#N | 92
CCOC(=O)c1oc2ccccc2c1NC(=O)CCSc1ccccc1 | 101
CC(C)C(=O)c1ccc(OCCOc2ccc(C#N)cc2)cc1 | 88
Clc1cccc(Cl)c1-c1cc(-c2ccccn2)on1 | 90
O=C(NN1C(=O)c2ccccc2NC12CCCC2)c1ccccc1 | 99
COC(=O)C1=C(O)/C(=C\c2cccc3ccccc23)N=C1C | 99
CC(C)N1CSC(=S)N(C(C)C)C1 | 100
CCC1Oc2ccccc2N(CC(=O)N2CC(C)CC(C)C2)C1=O (stereo unspecified) | 106
O=c1oc2ccccc2cc1-c1nc(-c2ccccc2)no1 | 89
Additional structures follow:
SMILES | VACV E9 pol inh
CCN(CC)S(=O)(=O)c1ccc(Cl)c(C(=O)Oc2ccc(C)cc2-n2nc3ccccc3n2)c1 | 101
COC(=O)C1C(=O)NC(SCc2ccccc2)=C(C#N)C1c1ccccc1 (stereo unspecified) | 100
CCOc1ccc(C(=O)Nc2cccc(NC(=O)c3ccccc3)c2)cc1Br | 100
Cc1cc(C)c(C)c(OCC(=O)NCC2CCCO2)c1 (stereo unspecified) | 101
COC(=O)CN1C=C(C(=O)OC)C(c2ccc(Cl)cc2)C(C(=O)OC)=C1 | 100
Cc1nnc(SCC(=O)Nc2ccc(Cl)cc2Cl)n1C | 104
c1ccc2[nH]c(CN3CCCCCC3)nc2c1 | 96
O=c1nc(-c2ccccc2)c2cc(Br)ccc2[nH]1 | 98
c1ccc2[nH]c(SCCN3CCOCC3)nc2c1 | 101

Ordered by molar mass (high to low): some entries from above
SMILES | VACV E9 pol inh
COC(=O)CN1C=C(C(=O)OC)C(c2ccc(Cl)cc2)C(C(=O)OC)=C1 | 100
COC(=O)C1C(=O)NC(SCc2ccccc2)=C(C#N)C1c1ccccc1 (stereo unspecified) | 100
O=c1nc(-c2ccccc2)c2cc(Br)ccc2[nH]1 | 98
